High-throughput results: PubChem, several laboratories
Insulin prom inh – TRM-6 insulin promoter activity inhibition; AID 1273; inhibition, % at 2 µM; actives 0.9% (n = 130,000); TRM-6 cells (human fetal islet line), insulin promoter-eGFP reporter, imaging; reporter expression induced with tamoxifen;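 active = inhibition above the mean plus 3 SD, with well images judged a real hit on visual review, cut at about 60% in these data, passing the limit was not always enough; inconclusive = inhibition over the cutoff but images rejected on review; inactive = inhibition not above the cutoff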
PKD1 kinase inh – inhibitors of human PKD1 kinase. PKD1 kinase fluorescence polarization assay. AID 797. inhibition, %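 (about 10 µM by stock and volumes)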. actives 0.056% (n = 200,000);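 active = inhibition of 50% or more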;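 also: controls were vehicle for no effect and a reference inhibitor for full effect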
RGS16-Gao – modulates binding between human RGS16 and Galphao; binding response (% of control), % at 10 µM; actives 0.38% (n = 220,000); O15492+P09471; bead-based flow cytometry RGS16-Galphao binding, fluorescence; actives lie on both sides;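 active = below 25% or above 175%, edge rows of some plates excepted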;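 also: Galphao activated by GDP with aluminum fluoride before binding; 100% = wells without compound and 0% = beads without RGS; some results beyond the cut were filed as inactive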
Target sequence (O15492 whole entry, looked up): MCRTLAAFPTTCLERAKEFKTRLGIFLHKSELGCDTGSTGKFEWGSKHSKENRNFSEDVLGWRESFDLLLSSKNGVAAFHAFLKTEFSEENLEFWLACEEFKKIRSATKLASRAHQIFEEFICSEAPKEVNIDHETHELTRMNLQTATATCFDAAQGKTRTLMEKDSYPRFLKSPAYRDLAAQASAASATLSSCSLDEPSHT
Target sequence (P09471 whole entry, looked up): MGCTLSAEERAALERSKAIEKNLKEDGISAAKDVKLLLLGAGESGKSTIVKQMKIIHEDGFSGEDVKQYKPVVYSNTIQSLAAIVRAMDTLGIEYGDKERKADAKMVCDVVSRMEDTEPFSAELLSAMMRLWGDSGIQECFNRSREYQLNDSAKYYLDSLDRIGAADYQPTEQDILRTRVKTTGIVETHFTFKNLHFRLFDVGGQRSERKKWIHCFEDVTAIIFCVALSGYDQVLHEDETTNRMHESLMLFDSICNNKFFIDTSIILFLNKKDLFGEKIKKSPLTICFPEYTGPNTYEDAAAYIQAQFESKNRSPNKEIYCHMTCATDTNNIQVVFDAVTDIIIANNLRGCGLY
HSV augment – increases HSV replication in cells; HSV replication augmentation in cells, fold increase; maximum fold increase; actives 0.005% (n = 220,000); AID 1956;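 active = peak rise of 1.5-fold or more in the series; inconclusive = self-fluorescent or not available for retest; tested in PC3 cells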;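 also: first round at 10 µM; read as green reporter fluorescence; hits show the peak of a series up to 25 µM; 1 = signal of infected wells without compound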
GALR2 ag – agonists of human galanin receptor 2 (GALR2); O43603; AID 803; GALR2-expressing cells, agonist activation read-out; actives 0.48% (n = 140,000); activation, %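 (tested at 5 µM)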;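 active = above mean plus 3 SD of all compounds, about 5% in these data, not always enough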;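 also: 0% = vehicle buffer wells and 100% = reference agonist at full effect; tested in CHO reporter cells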
Target sequence (O43603 whole entry, looked up): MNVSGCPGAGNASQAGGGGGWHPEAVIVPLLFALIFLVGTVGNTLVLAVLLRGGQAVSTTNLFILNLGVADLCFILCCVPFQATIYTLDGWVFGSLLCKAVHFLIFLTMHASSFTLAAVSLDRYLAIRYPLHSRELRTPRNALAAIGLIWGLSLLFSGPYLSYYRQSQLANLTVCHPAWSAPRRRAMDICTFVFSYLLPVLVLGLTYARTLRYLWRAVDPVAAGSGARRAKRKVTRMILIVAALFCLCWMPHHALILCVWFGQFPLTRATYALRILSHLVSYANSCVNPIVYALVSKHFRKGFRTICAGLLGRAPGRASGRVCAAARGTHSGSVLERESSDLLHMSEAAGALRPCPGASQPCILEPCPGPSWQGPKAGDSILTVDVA
Insulin prom inh cell count – recorded beside Insulin prom inh, whose call it bears; normalized cell count, %; measured here: cell count, toxicity; reference of the scale not given here;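 cells exposed to compound for 48 h; stained nuclei by imaging scaled within each plate; lower means fewer cells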
HSV augment primary fold – recorded beside HSV augment, whose call it bears; fold increase; compound at 10 µM; measured here: primary screen fold increase 10 uM; tested in PC3 cells;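 GFP signal in the first replicate; 1 = infected wells without compound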
Numbers without * were called inactive; i = inactive; ? = inconclusive; nt = not tested or not shown. Hits appear at their usual frequency; about 1.3% have a hit in one of these screens.

SMILES | Insulin prom inh | Insulin prom inh cell count | PKD1 kinase inh | RGS16-Gao | HSV augment | HSV augment primary fold | GALR2 ag
CCS(=O)(=O)N1CCN(Cc2nc3ccccc3c(=O)[nH]2)CC1 | 6.5 | 87.8 | 17.1 | 102.4 | i | 1.05 | -2.4
CCC(=O)NC1CCN(C(=S)NC)CC1 | -40.0 | 92.3 | -1.9 | 111.6 | i | 1.08 | nt
CC1=CSC2=NC(=O)/C(=C\c3cccn3-c3ccccc3)C(=N)N12 | 7.7 | 64.7 | -14.4 | 93.3 | i | 0.9 | -1.9
CCOC(=O)c1cnc(-n2nc(C)cc2C)nc1NCc1ccc2c(c1)OCO2 | 0.0 | 99.6 | -11.2 | 106.0 | i | 0.93 | 0.8
N#CC1=C(S)N(c2ccc(F)cc2)C2(CCCCC2)NC1=O | 41.2 | 118.3 | -4.7 | 101.2 | i | 1.13 | nt
Cc1cc(C)nc(SCc2nnc(SCC(=O)O)n2-c2ccccc2)n1 | nt | nt | 6.8 | 99.8 | i | 1.51 | nt
O=C(NCc1ccccn1)C(=O)C1C(=O)Nc2ccccc21 (configuration not stated) | nt | nt | -3.4 | 97.8 | i | 0.92 | nt
NS(=O)(=O)c1ccc(N2N=C(c3ccc(Br)cc3)CC2c2ccc(F)cc2)cc1 (configuration not stated) | 69.6 | 84.5 | -8.1 | 105.2 | i | 0.96 | 155.9*
Cc1c(CCOC(=O)C2C3CC4CC(C3)CC2C4)sc[n+]1CC(=O)c1ccc(Br)cc1 (configuration not stated) | -73.0 | 194.0 | -2.1 | 99.7 | i | 0.79 | -0.6
c1ccc(Oc2cc(-c3ccccc3)nc(-c3ccccc3)n2)cc1 | -6.9 | 82.4 | 4.8 | 18.8* | i | 1.17 | 1.2
O=C(CC12CC3CC(CC(C3)C1)C2)NCc1ccco1 | 0.0 | 123.8 | 4.7 | 103.7 | i | 0.92 | nt
Cc1cccc(-n2c(O)c(C=Nc3cc(O)ccc3C)c3ccccc3c2=O)n1 | nt | nt | -0.6 | 105.6 | i | 1.1 | nt
O=C(COc1ncnc2sccc12)NC1CCS(=O)(=O)C1 (configuration not stated) | nt | nt | nt | 99.5 | i | 0.96 | nt
[O-]/C(=C(\C(=S)Nc1ccccc1F)[n+]1ccccc1)c1ccc(OC(F)F)cc1 | nt | nt | nt | 99.1 | i | 1.01 | nt
O=C(COc1cccc(Br)c1)NN=C1c2ccccc2-c2ccccc21 | nt | nt | 6.2 | 101.7 | i | 0.85 | 0.1
CC(NC(=O)C1CCCN1C(=O)OCc1ccccc1)c1ccccc1 (configuration not stated) | -114.3 | 87.4 | 1.6 | 100.4 | i | 0.62 | nt
CCN(CC)CCNC(=O)C(=O)NCC1OCCN1C(=O)c1ccc2c(c1)OCO2 (configuration not stated) | 18.5 | 184.6 | 6.0 | 112.7 | i | 1.01 | -0.2
COc1ccc(CNC(=O)c2noc3c2CCCCC3)cc1 | nt | nt | -5.7 | 102.1 | i | 0.92 | -1.0
Cc1ccc(N2C(=O)CC(c3ccsc3)C3=C2CC(C)(C)CC3=O)cc1 (configuration not stated) | -47.7 | 88.0 | -6.9 | 99.6 | i | 0.89 | 0.4
COc1ccc(/C(O)=C2/C(=O)C(=O)N(CCN(C)C)C2c2ccc(OC)c(OC)c2)c(C)c1 (configuration not stated) | nt | nt | -10.1 | 92.5 | i | 0.95 | -0.8
CCn1c(=O)n(CC(=O)N2CCN(c3ccccc3F)CC2)c(=O)c2ccccc21 | 69.2 | 112.2 | 0.1 | 101.8 | i | 1 | -0.4
COc1cc(/C=C2\SC(=S)N(N(C)c3ccccc3)C2=O)ccc1O | nt | nt | nt | 100.9 | ? | nt | nt
CCN(CC)C1=C(Cl)C(=O)C(Cl)C12OCCO2 (configuration not stated) | nt | nt | nt | 101.7 | i | 0.9 | nt
O=C(c1ccccc1)C1CCN(C(=O)Nc2ccccc2)CC1 | nt | nt | nt | 92.5 | i | 1 | nt
Cc1cccc(NC(=S)Nc2ccc3cn[nH]c3c2)c1 | nt | nt | 8.4 | 102.1 | i | 0.99 | -1.3

(list continues)
SMILES | Insulin prom inh | Insulin prom inh cell count | PKD1 kinase inh | RGS16-Gao | HSV augment | HSV augment primary fold | GALR2 ag
CCCCCCCCN1C(=O)C(O)=C(C(C)=O)C1c1ccccn1 (configuration not stated) | 50.0 | 118.3 | 7.1 | 111.1 | i | 1.04 | -1.6
O=C1CC(=O)N(CCNc2ncc(C(F)(F)F)cc2Cl)C(=O)N1 | -16.1 | 83.9 | 3.4 | 95.2 | i | 1.11 | -3.3
COc1cc(OC)c(NC(=O)CCc2nc(-c3cccs3)no2)cc1Cl | -31.0 | 77.3 | 0.8 | 95.0 | i | 0.85 | -0.9
CCOc1ccc2nc(NC(NC(=O)CC)(C(=O)OC)C(F)(F)F)sc2c1 (configuration not stated) | nt | nt | -1.6 | 87.2 | i | 1.01 | -1.8
COc1cccc(C(=O)NN2c3ccccc3CCc3ccccc32)c1 | -12.5 | 60.1 | -10.4 | 103.7 | i | 1.02 | 2.7
O=C(N/N=C/c1ccccn1)c1ccc(N/N=C/c2ccccn2)cc1 | 54.5 | 116.5 | -1.1 | 129.4 | i | 0.97 | nt
O=C(NCc1ccc2c(c1)OCO2)Nc1ccc2nsnc2c1 | nt | nt | -3.1 | 106.0 | i | 0.96 | nt
CCN(CC)c1ccc(/C=N/NC(=O)c2c[nH]c3ccccc23)cc1 | 20.0 | 200.0 | -5.1 | 104.3 | i | 0.76 | 1.1
O=C(Nc1ccccc1F)C(=O)c1cn(CC(=O)N2CCCCC2)c2ccccc12 | 0.0 | 118.8 | -8.1 | 94.8 | nt | nt | nt
O=C(O)CCc1ccc(-c2cccs2)n1NC(=O)c1ccccc1Br | 42.2 | 155.4 | 0.5 | 103.1 | i | 0.73 | -2.9
Cc1ccc(OCC(=O)NNC(=O)c2cc3ccccc3o2)cc1C | -22.6 | 109.8 | -1.4 | 98.1 | i | 1.03 | 0.8
CCN1CCN(S(=O)(=O)c2cc(OC)ccc2OC)CC1 | -4.8 | 115.8 | 3.1 | 98.9 | i | 0.93 | -1.6
COc1cccc(OCCOCCN(C)CCO)c1 | nt | nt | -10.8 | 105.2 | i | 0.93 | -2.0
Fc1ccc(-c2nnc(Cc3ccc(Cl)cc3)o2)cc1 | nt | nt | nt | 102.3 | i | 1.05 | nt
CCOc1nnnc2c1sc1nc(N3CCOCC3)c3c(c12)CCCC3 | 26.7 | 112.8 | -3.5 | 99.8 | i | 1.05 | -2.0
Cc1[nH]n(-c2ccccc2)c(=S)c1C=Nc1ccc([N+](=O)[O-])cc1 | 0.0 | 81.8 | -6.3 | 9.8* | i | 0.96 | -0.7
CCN=C(Nc1cccc(F)c1)SC1CC(=O)N(c2ccc(OC)cc2)C1=O (configuration not stated) | nt | nt | -0.8 | 76.4 | i | 0.88 | -1.7
CC1(C)NC(=O)N(CCOCCOc2ccccc2-c2ccccc2)C1=O | -41.2 | 121.5 | -6.3 | 101.8 | i | 1.04 | nt
CCCCN(CCCC)c1ccc(C(=O)c2ccccc2C(=O)O)c(O)c1 | -21.1 | 50.9 | -0.1 | 100.9 | i | 1.2 | -0.9
COc1ccc(Br)cc1/C=N/NC(=O)CNC(=O)c1cccnc1 | nt | nt | nt | 98.5 | i | 0.83 | nt
COc1cc(OC)cc(C(=O)N[C@H](C(=O)Nc2ccccc2N2CCOCC2)C(C)C)c1 | -32.4 | 112.3 | -6.1 | 94.5 | i | 0.93 | -1.5
COC(=O)c1ccc(CSc2nc3ccccc3[nH]2)o1 | 4.7 | 159.2 | -1.4 | 99.5 | i | 0.9 | -3.4
CC(=O)Nc1ccc(S(=O)(=O)NCC2CCC(C(=O)N3CCN(c4ccccn4)CC3)CC2)cc1 (configuration not stated) | -28.6 | 91.1 | -2.9 | 98.6 | i | 0.95 | -0.7
CCOc1ccccc1/C=C(/C#N)C(N)=O | nt | nt | nt | 100.3 | i | 1.1 | nt
CN(C)C(=O)CSc1nnc(Cc2ccc([N+](=O)[O-])cc2)o1 | 36.7 | 93.2 | 2.2 | 115.8 | i | 0.89 | -3.0

(listing goes on)
SMILES | Insulin prom inh | Insulin prom inh cell count | PKD1 kinase inh | RGS16-Gao | HSV augment | HSV augment primary fold | GALR2 ag
Cc1ccccc1NC(=O)C(C)c1cccc(C(=O)c2ccccc2)c1 (configuration not stated) | nt | nt | 0.7 | 100.8 | i | 0.99 | -0.1
Cc1ccc(-c2nc(N/N=C/c3cccc([N+](=O)[O-])c3)c3ccccc3n2)cc1 | 26.5 | 93.0 | -12.6 | 98.2 | i | 0.83 | -0.9
CCC(Oc1ccccc1)C(=O)Nc1ccc(S(=O)(=O)Nc2cnc3ccccc3n2)cc1 (configuration not stated) | 17.4 | 95.3 | -5.3 | 101.1 | i | 1.01 | -2.3
COC(=O)c1sccc1NC(=O)c1ccoc1C | nt | nt | -2.6 | 157.3 | i | 0.92 | -0.7
O=C(CN1C(=O)CSc2cc(S(=O)(=O)N3CCCCCC3)ccc21)NCCc1ccccc1 | -61.1 | 101.7 | -21.1 | 64.4 | i | 0.92 | 1.3
CCOc1ccc(N=C2NC(=O)SC2CC(=O)OC)cc1 (configuration not stated) | nt | nt | nt | 102.3 | i | 0.98 | nt
CCOC(=O)C1CCCN(C(=O)c2cc(S(=O)(=O)N3CCCCC3)ccc2C)C1 (configuration not stated) | nt | nt | nt | 100.2 | i | 0.82 | nt
CC(C)CNS(=O)(=O)c1ccc(CCC(=O)N2CCN(Cc3ccccc3)CC2)cc1 | -10.0 | 117.6 | 0.2 | 108.1 | i | 1.11 | -1.5
COc1ccc(C(=O)NC(=S)NCc2cccnc2)cc1OC | -5.6 | 83.8 | -0.6 | 107.1 | i | 0.89 | nt
C/C(=N\NS(=O)(=O)c1ccccc1)c1cccc(NC(=O)c2cccc(Cl)c2)c1 | nt | nt | 9.8 | 187.8 | i | 1.1 | -1.1
NC(N)=NC(N)=Nc1cccc(Cl)c1 | nt | nt | nt | 81.3 | i | 0.97 | nt
CCn1c(-c2nonc2NC(=O)c2ccccc2)nc2ccccc21 | nt | nt | 3.2 | 105.2 | i | 1.15 | -1.0
CN(C)CC/C=C1/c2ccccc2Sc2c(O)cc(Cl)cc21 | -50.0 | 136.7 | 17.8 | 190.3 | i | 0.89 | -1.8

Structures shown so far that have a Cl atom:
SMILES | Insulin prom inh | Insulin prom inh cell count | PKD1 kinase inh | RGS16-Gao | HSV augment | HSV augment primary fold | GALR2 ag
CCN(CC)C1=C(Cl)C(=O)C(Cl)C12OCCO2 (configuration not stated) | nt | nt | nt | 101.7 | i | 0.9 | nt
O=C1CC(=O)N(CCNc2ncc(C(F)(F)F)cc2Cl)C(=O)N1 | -16.1 | 83.9 | 3.4 | 95.2 | i | 1.11 | -3.3
COc1cc(OC)c(NC(=O)CCc2nc(-c3cccs3)no2)cc1Cl | -31.0 | 77.3 | 0.8 | 95.0 | i | 0.85 | -0.9
Fc1ccc(-c2nnc(Cc3ccc(Cl)cc3)o2)cc1 | nt | nt | nt | 102.3 | i | 1.05 | nt
C/C(=N\NS(=O)(=O)c1ccccc1)c1cccc(NC(=O)c2cccc(Cl)c2)c1 | nt | nt | 9.8 | 187.8 | i | 1.1 | -1.1
NC(N)=NC(N)=Nc1cccc(Cl)c1 | nt | nt | nt | 81.3 | i | 0.97 | nt
CN(C)CC/C=C1/c2ccccc2Sc2c(O)cc(Cl)cc21 | -50.0 | 136.7 | 17.8 | 190.3 | i | 0.89 | -1.8
